CFTR F508del: total CFTR protein upregulators, primary screen, cell-based, HeLa F508del-CFTR, immunofluorescence, viability (AID 1224863); HeLa F508del-CFTR, immunofluorescence total CFTR, 24 h; by the record results were divided by relative cell number; some inactives read as strong as hits; calls, or highest fold increase where a dose series was run; 10,000 compounds, 0.1% hits; in the data nearly all actives have a first-pass fold increase above 1.5; a few of its hits are not listed in these tables;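 further: total CFTR protein by anti-CFTR immunofluorescence in fixed cells; first pass at 25 µM or 10 µg/mL by library and series up to twice that; 1 = untreated cells; first-pass hits also needed half or more of the cells alive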
CFTR F508del fold 25 µM: also measured in CFTR F508del; calls as there; fold increase; measured here: primary screen single dose 25 uM; library dosed in µM
CFTR F508del fold 10 ug/mL: also measured in CFTR F508del; calls as there; fold increase; measured here: primary screen 10 ug/mL
CFTR F508del viability 25 µM: further read-out of CFTR F508del, marked with its call; viability, %; measured here: primary viability 25 uM; library dosed in µM;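 0% = killed and 100% = untreated cells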
CFTR F508del viability 10 ug/mL: second read-out of CFTR F508del, no call of its own (marks repeat the call); viability, %; measured here: primary viability 10 ug/mL;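 0% = killed and 100% = untreated cells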
The depositor's hits bear a star; i = inactive; x = no result given; & = joins results of further samples.

SMILES | CFTR F508del | CFTR F508del fold 10 ug/mL | CFTR F508del viability 10 ug/mL | others
Cc1csc(SCc2nnnn2-c2ccccc2)n1 | i | 1 | 98
CCCNCC1CCCCC1 | i | 1 | 95
O=S(=O)(Nc1cc(F)ccc1F)c1ccc2c(c1)OCCO2 | i | 1 | 95
CCOC(=O)C1=C[C@@H](OC(CC)CC)[C@H](NC(C)=O)[C@@H](N)C1 | i | x | x | CFTR F508del fold 25 µM=1;CFTR F508del viability 25 µM=92
Cc1cc(/C=C(/C#N)c2nc(N)nc(N(C)C)n2)c(C)n1C1CC1 | i | 1 | 88
O=C1CCC2(C(=O)Nc3cccnc3)Sc3ccccc3N12 (stereo unspecified) | i | 0.99 | 89
CC(C)n1nnnc1Sc1ccc2nnc(C(F)(F)F)n2n1 | i | 0.87 | 85
Nc1ccc(C(=O)Oc2ccccc2)c(O)c1 | i | x | x | CFTR F508del fold 25 µM=1;CFTR F508del viability 25 µM=97
CC(C)CN(Cn1[nH]c(-c2ccc(Br)cc2)nc1=S)C1CCS(=O)(=O)C1 (stereo unspecified) | i | 1.1 | 111
c1ccc(COc2ccccc2OCCn2ccnc2)cc1 | i | 1.1 | 87
C=CCn1c(SCC#N)nnc1C1CCCCC1 | i | 1 | 98
CCCC(C)N(C)C(=O)c1csc(NC(C)=O)n1 (stereo unspecified) | i | 0.97 | 91
CC(C)NC(=O)NC(=O)COC(=O)c1ncc(Cl)c(Cl)c1Cl | i | 1.1 | 111
c1ccc(CN2CCC(NCc3ccncc3)CC2)cc1 | i | 1.1 | 104
COC(=O)c1ccc(S(=O)(=O)NC2CCN(C(C)(C)C)CC2)s1 | i | 0.96 | 89
CCOCCCNCC(O)c1ccccc1 (stereo unspecified) | i | 1.1 | 105
CCC(=O)OCC(=O)[C@@]1(OC(=O)CC)[C@@H](C)CC2C3CCC4=CC(=O)C=C[C@]4(C)C3(F)[C@@H](O)C[C@@]21C (stereo partly specified) | i | x | x | CFTR F508del fold 25 µM=1.2;CFTR F508del viability 25 µM=92
CCOC(=O)OC(C)OC1=C(C(=O)Nc2ccccn2)N(C)S(=O)(=O)c2ccccc21 (stereo unspecified) | i | x | x | CFTR F508del fold 25 µM=1&1;CFTR F508del viability 25 µM=101&95
O=S(=O)(c1ccc(Cl)c(C(F)(F)F)c1)N1CCN(CCc2ccncc2)CC1 | i | 0.97 | 97
O=C(NCCc1ccc2c(c1)OCCO2)NCc1cccnc1OC1CCCC1 | i | 0.85 | 91
CCCCn1c(=O)n(Cc2nnc(-c3ccco3)o2)c(=O)c2c1ncn2CCC(C)C | i | 1.1 | 99
Cc1nc(-c2ccsc2)sc1C(=O)NC1CCS(=O)(=O)C1 (stereo unspecified) | i | 0.98 | 98
CCCCCCCCCCCCCCCC[N+](C)(C)C | i | x | x | CFTR F508del fold 25 µM=0.61;CFTR F508del viability 25 µM=51
Cc1ccc(Nc2nccc(N(C)c3ccc4c(C)n(C)nc4c3)n2)cc1S(N)(=O)=O | i | x | x | CFTR F508del fold 25 µM=0.84;CFTR F508del viability 25 µM=66
COC(=O)C1=C(C)NC(C)=C(C(=O)OCC(C)C)C1c1ccccc1[N+](=O)[O-] (stereo unspecified) | i | x | x | CFTR F508del fold 25 µM=1.1&1.1;CFTR F508del viability 25 µM=86&70

Structures from the list above that have a cyano group (2):
SMILES | CFTR F508del | CFTR F508del fold 10 ug/mL | CFTR F508del viability 10 ug/mL | others
Cc1cc(/C=C(/C#N)c2nc(N)nc(N(C)C)n2)c(C)n1C1CC1 | i | 1 | 88
C=CCn1c(SCC#N)nnc1C1CCCCC1 | i | 1 | 98

Carrying on:
SMILES | CFTR F508del | CFTR F508del fold 10 ug/mL | CFTR F508del viability 10 ug/mL | others
CCOC(=O)c1c(C)[nH]c(C(=O)COC(=O)c2cnn(C)c2)c1C | i | 1 | 101
NS(=O)(=O)c1ccc2c(c1)CCN2Cc1cccc2ccccc12 | i | 0.87 | 82
Cc1cc(NC(=O)C(C)(C)C)sc1C(=O)OCC(=O)c1ccc2c(c1)OCO2 | i | 0.93 | 115
CCn1cnnc1SCCCCN1C(=O)c2ccccc2C1=O | i | 1 | 106
CN1/C(=C\C(=O)c2cccc(Oc3ccccc3)c2)C(C)(C)c2ccccc21 | i | 0.94 | 84
CCCNC(=O)CN1C(=O)NC2(CCC(CC)CC2)C1=O (stereo unspecified) | i | 0.99 | 101
CSc1ncnc2ccsc12 | i | 0.91 | 90
Cc1[nH]c(=O)[nH]c(=O)c1CCC(=O)N1CCN(S(=O)(=O)N(C)C)CC1 | i | 0.97 | 99
O=C1C(=O)N(CN2CCN(S(=O)(=O)c3ccc4c(c3)CCC4)CC2)C(=O)N1Cc1ccccc1 | i | 1.1 | 105
COc1ccc2c(c1)CCCN2S(=O)(=O)c1ccc2c(c1)CCC(=O)N2 | i | 0.93 | 84
CC(=O)N(CC(O)CO)c1c(I)c(C(=O)NCCO)c(I)c(C(=O)NCC(O)CO)c1I (stereo unspecified) | i | x | x | CFTR F508del fold 25 µM=1.2;CFTR F508del viability 25 µM=113
C=CCn1c(SCc2nc3ccc(Cl)cc3n2CCO)nnc1-c1ccccc1 | i | 1.1 | 85
O=C1CC2(CCCCC2)C(=O)N1CN1CCN(Cc2ccc3c(c2)OCO3)CC1 | i | 0.94 | 94
CS(=O)(=O)c1ccc(F)c(NS(=O)(=O)c2ccc3c(c2)CCCC3)c1 | i | 1.1 | 86
CCc1ccc(Nc2nnc(Sc3ccc4nnnn4n3)s2)cc1 | i | 0.85 | 83
CN(Cc1nc2ccccc2s1)CN1C(=O)C(=O)c2cc3c(cc21)OCCO3 | i | 1.1 | 90
Clc1ccc2nc(CSc3nnnn3CC3CCCO3)cn2c1 (stereo unspecified) | i | 1.2 | 99
Nc1cccc(-n2cc[nH]c2=O)c1 | i | 1 | 101
O=C(CSc1nnc2c(Cl)cc(Cl)cn12)C12CC3CC(CC(C3)C1)C2 | i | 1.2 | 96
CC(C)(C)NC(=O)NC(=O)CN1CCOCC1 | i | 1.1 | 87
Cc1nc2ccccc2nc1SCC(=O)c1c(C)[nH]c2ccccc12 | i | 1 | 88
CC(O)CNCc1ccc(N(c2ccccc2)c2ccccc2)cc1 (stereo unspecified) | i | 0.83 | 71
Cc1c(NC(C)C)c(=O)n(-c2ccccc2)n1C | i | x | x | CFTR F508del fold 25 µM=0.99;CFTR F508del viability 25 µM=108
Fc1cccc(-n2nnnc2SCc2ccc3c(c2)OCO3)c1 | i | 0.97 | 91
CN(CCN)C1CCCCC1 | i | 1 | 89

6 entries from above, sorted by formula weight, ascending:
SMILES | CFTR F508del | CFTR F508del fold 10 ug/mL | CFTR F508del viability 10 ug/mL | others
CCCNC(=O)CN1C(=O)NC2(CCC(CC)CC2)C1=O (stereo unspecified) | i | 0.99 | 101
Fc1cccc(-n2nnnc2SCc2ccc3c(c2)OCO3)c1 | i | 0.97 | 91
Cc1nc2ccccc2nc1SCC(=O)c1c(C)[nH]c2ccccc12 | i | 1 | 88
O=C(CSc1nnc2c(Cl)cc(Cl)cn12)C12CC3CC(CC(C3)C1)C2 | i | 1.2 | 96
Cc1cc(NC(=O)C(C)(C)C)sc1C(=O)OCC(=O)c1ccc2c(c1)OCO2 | i | 0.93 | 115
C=CCn1c(SCc2nc3ccc(Cl)cc3n2CCO)nnc1-c1ccccc1 | i | 1.1 | 85

Later entries.
SMILES | CFTR F508del | CFTR F508del fold 10 ug/mL | CFTR F508del viability 10 ug/mL | others
Fc1cc(COc2cccc(-n3cnnn3)c2)c2ncccc2c1 | i | 1.1 | 100
COc1cc2c(cc1OC)CN(Cc1cc3c(cc1O)OCCO3)CC2 | i | 0.98 | 111
CC(Sc1nnc(C2CC2)n1CC(N)=O)c1nc(N)nc(N(C)C)n1 (stereo unspecified) | i | 1.1 | 104
CC(C)OCCN1CCc2cc(S(N)(=O)=O)ccc21 | i | 1.1 | 93
Cc1[nH]nc2c1C(c1cc(C)n(-c3ccc(F)cc3)c1C)C1=C(CCCC1=O)N2 (stereo unspecified) | i | 1 | 106
OC[C@@H](O)[C@@H](O[C@@H]1O[C@H](CO)[C@H](O)[C@H](O)[C@H]1O)[C@H](O)[C@@H](O)CO | i | x | x | CFTR F508del fold 25 µM=1;CFTR F508del viability 25 µM=85
CCOCCCNC(=O)c1ccc(Cl)s1 | i | 0.91 | 96
Nc1nc(=S)c2[nH]cnc2[nH]1 | i | x | x | CFTR F508del fold 25 µM=0.75&0.77&0.76;CFTR F508del viability 25 µM=62&59&72
CCSc1nnc(NC(=O)CC2CCCC2)s1 | i | 0.98 | 88
CC[C@H]1OC(=O)C[C@@H](O)[C@H](C)[C@@H](O[C@@H]2O[C@H](C)[C@@H](O[C@H]3C[C@@](C)(O)[C@@H](O)[C@H](C)O3)[C@H](N(C)C)[C@H]2O)[C@@H](CC=O)C[C@@H](C)C(=O)/C=C/C(C)=C/[C@@H]1CO[C@@H]1O[C@H](C)[C@@H](O)[C@@H](OC)[C@H]1OC | i | x | x | CFTR F508del fold 25 µM=1.1;CFTR F508del viability 25 µM=92
CCONC(=O)C1CC(=O)N(c2cccc3ccccc23)C1 (stereo unspecified) | i | 0.96 | 100
FC(F)(F)c1ccc(-c2noc(CN(Cc3ccccc3)C3CC3)n2)cc1 | i | 1 | 95
O=C(CCc1nc2sc3c(c2c(=O)[nH]1)CCC3)N1CCCCC1 | i | 1 | 100
Nc1ccn(C2CSC(CO)O2)c(=O)n1 (stereo unspecified) | i | x | x | CFTR F508del fold 25 µM=0.99;CFTR F508del viability 25 µM=97
Clc1cc(CNCCCCc2ccccc2)cc2c1OCO2 | i | 1.1 | 94
COc1ccc(OC)c(C2CCCN2C(=O)CN2C(=O)C(=O)N(C3CCCC3)C2=O)c1 (stereo unspecified) | i | 1.1 | 109
O=C(CN1C(=O)NC2(CCCCCCC2)C1=O)NC1CCCCC1 | i | 1.1 | 91
CC(C)n1ncc2cc(NS(=O)(=O)c3ccc(Br)cc3)cnc21 | i | 1 | 80
CCCC(=O)N1CCN(S(=O)(=O)c2c(C)noc2C)CC1 | i | 1.2 | 101
CCOc1ccccc1OCCNC(C)Cc1ccc(OC)c(S(N)(=O)=O)c1 (stereo unspecified) | i | x | x | CFTR F508del fold 25 µM=0.8;CFTR F508del viability 25 µM=77
O=C1C(=O)N(C2CCCC2)C(=O)N1CN1CCN(c2ccccc2)CC1 | i | 0.94 | 97
Cn1nccc1CNC(=O)CN1C(=O)C2CCCCC2C1=O (stereo unspecified) | i | 1.1 | 100
CCCc1cc(=O)[nH]c(SC)n1 | i | 1 | 92
NC(=O)c1sc2nc(C(F)(F)F)ccc2c1N | i | 0.92 | 92
O=[N+]([O-])c1cccc(-c2cc(-c3nc4ccccc4[nH]3)c(-c3ccccc3)o2)c1 | i | 0.98 | 94

More results.
SMILES | CFTR F508del | CFTR F508del fold 10 ug/mL | CFTR F508del viability 10 ug/mL | others
NCCC[C@H](N)CC(=O)NC1CNC(=O)[C@H]([C@H]2C[C@H](O)N=C(N)N2)NC(=O)/C(=C/NC(N)=O)NC(=O)[C@H](CO)NC(=O)[C@H](CO)NC1=O (stereo partly specified) | i | x | x | CFTR F508del fold 25 µM=1.2;CFTR F508del viability 25 µM=86
COC(=O)c1c(C)[nH]c(C(=O)OC(C)C(=O)NC2CC2)c1C (stereo unspecified) | i | 0.87 | 87
CCN(CC)S(=O)(=O)c1ccc(S(=O)(=O)N2CCCc3cccc(F)c32)cc1 | i | 0.98 | 88
Cc1cc(C(C)NC(=O)C2(C)CC2(Cl)Cl)c(C)s1 (stereo unspecified) | i | 0.9 | 85
Cc1nc(N2CCN(c3nnnn3-c3ccccc3)CC2)c2c3c(sc2n1)CCCC3 | i | 0.93 | 90
CN(CCOc1ccccc1)c1ccc2nnc(C(F)(F)F)n2n1 | i | 0.97 | 78
CCN(CCC(=O)NC(N)=O)C1C2CC3CC(C2)CC1C3 (stereo unspecified) | i | 0.93 | 78
CCCc1cc(=O)[nH]c(SC(C)C)n1 | i | 1.1 | 91
O=S(=O)(NC12CC3CC(CC(C3)C1)C2)c1ccc(Cl)cc1C(F)(F)F | i | 1.1 | 75
O=[N+]([O-])c1ccc2c(c1)NCCS2 | i | 1.2 | 98
Cc1ccc(-n2nnnc2SCCO)c(C)c1 | i | 0.92 | 91
COCCn1c(SCc2cc([N+](=O)[O-])cc3c2OCOC3)nc2sc3c(c2c1=O)CCCC3 | i | 1.1 | 92
c1csc(-c2c3c(nc4c2oc2ccccc24)CCCCCC3)c1 | i | 1.1 | 96
CC(C)(CNC(=O)CC1CC2CCC1C2)N1CCOCC1 (stereo unspecified) | i | 1 | 97
CCC(C)(C)NS(=O)(=O)c1ccc(C)c([N+](=O)[O-])c1 | i | 0.98 | 87
CS(=O)(=O)Cc1ccc(C(=O)OCc2cc(Cl)c3c(c2)OCCO3)cc1 | i | 1 | 86
Cc1csc(Sc2ccc(N)cc2)n1 | i | 0.85 | 98
CSc1nnc(NC(C)(C)C)s1 | i | 1 | 88
CC(C)CN1C(=O)C(=O)N(CC(=O)N2CCNC2=O)C1=O | i | 0.92 | 99
O=C(CN1C(=O)c2ccccc2S1(=O)=O)N1CCNC1=O | i | 0.88 | 86
CCNC(=O)Cn1c(=O)/c(=C/c2sccc2C)s/c1=C\C(=O)C(C)(C)C | 6.2 | 2 | 81
CCCC1O[C@@H]2CC3C4CCC5=CC(=O)C=CC5(C)C4[C@@H](O)CC3(C)[C@]2(C(=O)CO)O1 (stereo partly specified) | i | x | x | CFTR F508del fold 25 µM=1.2;CFTR F508del viability 25 µM=80

The list is partial. The share of hits here may be higher or lower than overall.
